Assay outcomes deposited in PubChem by Center for Chemical Genomics, University of Michigan.
CDC25B CDK2 inh = human CDC25B-CDK2/CyclinA binding inhibition. P30305+P24941. HTRF CDC25B-CDK2/CyclinA binding, anti-His/anti-Flag; stronger effect = higher value. z-score (no concentration beside the values). 94,000 compounds, 0.72% hits. AID 1259370;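 note: score is relative to mean and SD of negative controls; strong numbers were not always called active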
TAR Tat displ = HIV-1 TAR-Tat binding disruption | 100,000 compounds, 0.6% hits | z-score (test concentration not listed) | HIV-1 TAR RNA, Tat peptide displacement FRET; stronger effect = higher value | AID 1259389;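 note: score is relative to mean and SD of negative controls; some compounds called inactive have numbers as strong as hits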
Starred values were filed as active, the others as inactive.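 Rule for the calls: active = z-score from 3 up in half or more of its runs; inactive = the rest.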

For COC(=O)C1=C(C)NC2=C(C(=O)CC(c3cccs3)C2)C1c1cc(OC)ccc1OC (centres undefined) the results were TAR Tat displ 1.3.
`O=C(Nc1ccccc1C(F)(F)F)c1ccc(-c2cc(Cl)ccc2Cl)o1` gave CDC25B CDK2 inh -1.2.
`COc1ccc(-c2nnc3c4ccccc4n(Cc4ccccc4OC)cc2-3)cc1` gave CDC25B CDK2 inh -1.6 and TAR Tat displ 0.61.
`COC(=O)CSc1nc(N)cc(=O)[nH]1` gave CDC25B CDK2 inh -2.5 and TAR Tat displ 1.4.
`CCCCNc1cc(N2CCN(C)CC2)c2noc3c2c1C(=O)c1ccccc1-3` gave CDC25B CDK2 inh -0.95 and TAR Tat displ 1.
`Cn1c(=O)c(=O)n(C)c2cc(S(=O)(=O)NC3CCCC3)ccc21` gave CDC25B CDK2 inh -0.89 and TAR Tat displ 0.05.
`COC(=O)c1ccc(-c2nc(C(N)=O)c3[nH]c(=O)n(-c4ccc(F)cc4)c3n2)cc1` gave TAR Tat displ 1.8.
For c1ccc2c(CNC3CCCC3)noc2c1 the results were TAR Tat displ 2.1.
`Cn1c2ccccc2c2cnn(CC(=O)NCc3cccs3)c(=O)c21` gave CDC25B CDK2 inh 1.2 and TAR Tat displ 0.19.
Screening CCOc1cccc2c1OC(c1cccc(Cl)c1)N1N=C(c3ccco3)CC21 (centres undefined) returned CDC25B CDK2 inh 3.2.
CCCCC(=O)Nc1nnc(SCc2nc3ccccc3[nH]c2=O)s1 was read as TAR Tat displ -7.9.
For CCC(CC)C(=O)Nc1cc(-c2cn3cccnc3n2)ccc1C the results were CDC25B CDK2 inh -0.66.
CC1CCN(C(=O)CSc2nnc(-c3ccco3)o2)CC1 was read as CDC25B CDK2 inh -0.69 and TAR Tat displ 1.8.
For CCSCCOC(=O)C1=C(C)NC2=C(C(=O)C(C(=O)OC)C(C)C2)C1c1ccc(Cl)c(F)c1 (centres undefined) the results were CDC25B CDK2 inh 1.7 and TAR Tat displ 0.11.
Screening O=S(=O)(c1ccc(Br)cc1)N1CCC(Cc2ccccc2)CC1 returned CDC25B CDK2 inh 1.3.
`O=C(Cn1nc2c(cc1=O)CCCC2)NCc1ccc2c(c1)OCO2` gave TAR Tat displ 2.1.
`Cn1c(=O)c2c(SCC(=O)Nc3ccc4c(c3)OCO4)nc(-c3ccco3)nc2n(C)c1=O` gave CDC25B CDK2 inh -1.2.
For Cc1ccc(S(=O)(=O)NNC(=S)Nc2ccccc2)cc1 the results were CDC25B CDK2 inh -3.7.
Screening Cn1c(=O)[nH]c(=O)c2c1nc(NCc1ccco1)n2Cc1ccccc1Cl returned CDC25B CDK2 inh 4.7.
COC(=O)Nc1cc(OC)cc(C(F)(F)F)c1 was read as CDC25B CDK2 inh -1.1.
`O=C(NC1CCCCC1)c1cc(S(=O)(=O)N2CCCC2)c[nH]1` gave TAR Tat displ 2.4.
For COCCCN1C(=O)c2ccc(-c3ccco3)n2CC1(C)C(=O)NC1CCCCC1C (centres undefined) the results were TAR Tat displ 0.04.
CC1=C(C(=O)NCCC(C)C)C2(CCN(S(C)(=O)=O)CC2)OC1=O was read as TAR Tat displ 0.49.
Screening CCN(CC)C(=O)NC1C(NC(=O)N(CC)CC)N(C)C(=O)N1C (centres undefined) returned CDC25B CDK2 inh -1.2 and TAR Tat displ 1.6.
`Cc1cc(C)cc(NC(=O)CSCc2cc(=O)n3nc(C)sc3n2)c1` gave TAR Tat displ 0.83.
Screening COc1cc(NS(=O)(=O)c2cccc(C(F)(F)F)c2)c(OC)cc1Cl returned CDC25B CDK2 inh -1.6.
For O=C(CCCn1ncn2c(cc3occc32)c1=O)NCc1ccco1 the results were CDC25B CDK2 inh 0.27 and TAR Tat displ 1.5.
`O=C(NCc1ccco1)NC1CCCCC1` gave CDC25B CDK2 inh -0.02.
Screening Cc1nc(-c2cccnc2)sc1CCNS(=O)(=O)c1ccc(F)cc1 returned TAR Tat displ -1.1.
For CC1CCc2c(sc(NC(=O)c3ccco3)c2C(=O)N2CCOCC2)C1 (centres undefined) the results were CDC25B CDK2 inh 3.1 and TAR Tat displ 0.71.
For CCc1ccc(-c2cc(C)no2)cc1S(=O)(=O)NC1CCCC1 the results were TAR Tat displ -0.28.
Screening O=S(=O)(c1cc(C(F)(F)F)cc(C(F)(F)F)c1)n1cc2c(n1)CCOC2 returned CDC25B CDK2 inh 1.
O=S(=O)(Nc1cccc(-c2cn3ccsc3n2)c1)c1ccc(Oc2ccccc2)cc1 was read as TAR Tat displ 0.88.
Screening COCCCn1c(-c2csc(C)n2)n[nH]c1=S returned CDC25B CDK2 inh -2.4.
Cc1cccc2c1Oc1nc(-c3cccc(Cl)c3)[nH]c(=O)c1C2 was read as CDC25B CDK2 inh -0.83 and TAR Tat displ 1.6.
`CC1=C(C(=O)N(CC(=O)NC2CCCCC2C)c2ccc(Cl)cc2)SCCO1` (centres undefined) gave TAR Tat displ 1.7.
For CC1=Cc2c(ccc3ccccc23)OC12C=Cc1cccc([N+](=O)[O-])c1O2 (centres undefined) the results were CDC25B CDK2 inh -4.6.
`CN1C(=O)c2ccccc2C(C(=O)NCc2ccco2)C1c1cn(C)c2ccccc12` (centres undefined) gave CDC25B CDK2 inh -1.3.
For CN(C)CCCOC(=O)c1ccc2c(c1)OCO2 the results were CDC25B CDK2 inh -2.4 and TAR Tat displ 0.71.
Screening COC(=O)c1[nH]c2sc3c(c2c1N)CCCC3 returned CDC25B CDK2 inh 14* and TAR Tat displ 7*.
Screening O=C(CC1S\C(=N/N=C/C=C/c2ccccc2)NC1=O)Nc1ccc(Cl)c(Cl)c1 (centres undefined) returned CDC25B CDK2 inh -5.
For Cc1nnsc1C(=O)Nc1sc2c(c1C(=O)NCC1CCCO1)CCC2 (centres undefined) the results were CDC25B CDK2 inh -0.03 and TAR Tat displ 1.2.
Screening CCOC(=O)Cn1nnc2sc3c(c2c1=O)CCC(C(C)(C)C)C3 (centres undefined) returned CDC25B CDK2 inh -0.62 and TAR Tat displ 0.4.
Cc1ccc2c(c1)N(C(=O)Nc1ccc(C)c(C)c1)CC(C)O2 (centres undefined) was read as TAR Tat displ 1.3.
N#Cc1c(C(F)(F)F)cc(-c2ccccc2)nc1SCC(=O)N1CCCCC1 was read as CDC25B CDK2 inh -0.98 and TAR Tat displ 1.1.
O=C(CN1C(=O)c2cccnc2Oc2ccc(Cl)cc21)NCc1ccccn1 was read as TAR Tat displ -2.
`Cc1nn(CC(=O)N2CCCC2)c(=O)c2nn(-c3ccccc3)c(C)c12` gave TAR Tat displ 0.17.
For Cc1nn(CC(=O)NC2CCCc3ccccc32)c(=O)c2c1sc1ccccc12 (centres undefined) the results were CDC25B CDK2 inh -2.2 and TAR Tat displ -1.2.

4 compounds out of the list, ordered by molar mass, descending.
`CN1C(=O)c2ccccc2C(C(=O)NCc2ccco2)C1c1cn(C)c2ccccc12` (centres undefined) gave CDC25B CDK2 inh -1.3.
For Cc1nn(CC(=O)NC2CCCc3ccccc32)c(=O)c2c1sc1ccccc12 (centres undefined) the results were CDC25B CDK2 inh -2.2 and TAR Tat displ -1.2.
For Cc1nnsc1C(=O)Nc1sc2c(c1C(=O)NCC1CCCO1)CCC2 (centres undefined) the results were CDC25B CDK2 inh -0.03 and TAR Tat displ 1.2.
For CC1=Cc2c(ccc3ccccc23)OC12C=Cc1cccc([N+](=O)[O-])c1O2 (centres undefined) the results were CDC25B CDK2 inh -4.6.

2 entries drawn at random from those above, as already listed:
Screening COC(=O)c1[nH]c2sc3c(c2c1N)CCCC3 returned CDC25B CDK2 inh 14* and TAR Tat displ 7*.
Screening CCOC(=O)Cn1nnc2sc3c(c2c1=O)CCC(C(C)(C)C)C3 (centres undefined) returned CDC25B CDK2 inh -0.62 and TAR Tat displ 0.4.

(list continues)
Cc1noc(C(=O)NC(C)(C)C)c1Cl was read as CDC25B CDK2 inh -1.3 and TAR Tat displ 0.77.
`O=C1CC(C(=O)Nc2ccccc2)N=C(Nc2nc3ccccc3s2)N1` (centres undefined) gave CDC25B CDK2 inh 0.18 and TAR Tat displ 1.4.
`CC(C)C(=O)Nc1ccccc1SCc1cc(=O)n2ccsc2n1` gave TAR Tat displ 0.89.
COc1cc(OC)cc(-c2nnc(Cc3ccccc3OC)o2)c1 was read as CDC25B CDK2 inh -0.84 and TAR Tat displ 1.1.
For Oc1ccccc1OCCCCCOc1ccccc1O the results were CDC25B CDK2 inh -0.82.
For CCCn1nc(NS(=O)(=O)c2ccccc2)c2cc3cccc(C)c3nc21 the results were CDC25B CDK2 inh -1.8 and TAR Tat displ 0.54.
Screening COc1ccc(NC(=O)c2c(C)oc3c(F)c(F)c(F)c(F)c23)c(OC)c1 returned CDC25B CDK2 inh -1.5.
O=c1[nH]c(SCCCCOc2ccccc2)nc2c1CCC2 was read as CDC25B CDK2 inh -1.6 and TAR Tat displ 0.2.
`CCN(Cc1ccccc1)S(=O)(=O)c1cc(-c2n[nH]c(=O)c3c2CCCC3)ccc1C` gave CDC25B CDK2 inh 0.01 and TAR Tat displ 3.4.
`Cc1ccccc1Nc1c(-c2ccc(O)cc2)nc2sccn12` gave CDC25B CDK2 inh 0.55 and TAR Tat displ -2.5.
`COC(=O)c1c(SCc2ccccc2)nc2ccccc2c1OC` gave TAR Tat displ 0.86.
`O=C(Cc1ccccc1)N1CCN(c2cc(=O)n3nc(-c4ccccc4)sc3n2)CC1` gave TAR Tat displ -0.88.
Screening Cc1ccc(S(=O)(=O)Nc2ccc(-c3cn4ccccc4n3)cc2)c(C)c1 returned CDC25B CDK2 inh 0.58.
For Cc1ccc(C)n1CCN1CCN(S(=O)(=O)Cc2ccc(Cl)cc2)CC1 the results were CDC25B CDK2 inh -0.54.
For O=c1oc2ccccc2n1Cc1nnc(-c2ccccc2)o1 the results were CDC25B CDK2 inh -1.9 and TAR Tat displ 2.9.
For O=C(Nc1ccccc1C(=O)NCCc1ccccc1)c1ccncc1 the results were CDC25B CDK2 inh -3.8.
Screening CCc1nnc2c(NCCN(CC)CC)nc3ccccc3n12 returned TAR Tat displ 0.9.
[O-]/[N+](=N\OCCO/N=[N+](/[O-])c1ccccc1)c1ccccc1 was read as CDC25B CDK2 inh -2.1.
`c1cnc(N2CCN(c3ncnc4nc[nH]c34)CC2)nc1` gave CDC25B CDK2 inh -1.3 and TAR Tat displ -1.3.
`O=C(O)c1cc(O)ccc1O` gave TAR Tat displ 3.2.
For Cc1cc(=O)n2[nH]c(NCc3ccc(C(C)C)cc3)nc2n1 the results were CDC25B CDK2 inh -0.21 and TAR Tat displ 1.3.
CSC(SC)=C(C#N)c1ccccn1 was read as CDC25B CDK2 inh -3.
`CN1CCN(c2nc(NCCCO)nc3c2cnn3C)CC1` gave TAR Tat displ 0.42.
For COc1cc(-c2nc3cnccn3c2Nc2ccc(C)cc2)ccc1O the results were CDC25B CDK2 inh -0.23.
For COCC(=O)Nc1c(C(=O)N2CCN(c3ccccn3)CC2)oc2ccccc12 the results were TAR Tat displ 1.2.
`C=Cc1ccc(CSc2nc3ncccc3o2)cc1` gave TAR Tat displ -0.05.
For COc1cc(C(=O)OC(Cc2ccccc2)C(F)(F)F)cc(OC)c1OC (centres undefined) the results were CDC25B CDK2 inh -1.
For CC1=Nc2cc(C(=O)NCC3CCCO3)ccc2Sc2ccc(C)cc21 (centres undefined) the results were CDC25B CDK2 inh -0.52 and TAR Tat displ 0.48.
Screening CCCN1C(=O)c2c(NC(C)=O)c3ccccc3n2CC1(C)C(=O)NC1CCCC1 (centres undefined) returned TAR Tat displ 2.2.
Cc1c(C(=O)N(C)C2CCCCC2)sc2ncn(CC(=O)N3CC(C)CC(C)C3)c(=O)c12 (centres undefined) was read as CDC25B CDK2 inh -1.5.
Screening CC(=O)Nc1ccc(S(=O)(=O)N2CCN(CC(=O)N3CCOCC3)CC2)cc1 returned CDC25B CDK2 inh -0.36.
For CC(C)c1ccc(NC(=O)C2C3C=CC4(O3)C2C(=O)N(C(C)C)C4C(=O)NC2CCCCC2C)cc1 (centres undefined) the results were CDC25B CDK2 inh -0.81 and TAR Tat displ 0.85.
`O=C(CSc1nccn1Cc1ccc2c(c1)OCO2)Nc1ccc2c(c1)OCCO2` gave TAR Tat displ 1.1.
Screening C=Cc1ccc(Cn2nc(-c3ccccc3)ccc2=O)cc1 returned CDC25B CDK2 inh -0.53 and TAR Tat displ 1.7.
Screening COc1ccc(/C=C/c2nc(C#N)c(NCc3ccccc3)o2)cc1OC returned CDC25B CDK2 inh -1.4 and TAR Tat displ 0.9.
For O=c1cc(CSC2CCCCC2)nc2sc3c(n12)CCCC3 the results were TAR Tat displ 1.6.

The final 2 entries of the section above are carried over, then new ones follow:
Screening COc1ccc(/C=C/c2nc(C#N)c(NCc3ccccc3)o2)cc1OC returned CDC25B CDK2 inh -1.4 and TAR Tat displ 0.9.
For O=c1cc(CSC2CCCCC2)nc2sc3c(n12)CCCC3 the results were TAR Tat displ 1.6.
Screening COc1ccc(NC(NC(=O)c2ccc(OC)cc2)(C(F)(F)F)C(F)(F)F)cc1 returned CDC25B CDK2 inh -1.3.
For COc1ccc2c(c1)c(=O)oc1cc(OCc3ccc(F)cc3)ccc12 the results were CDC25B CDK2 inh -1.3 and TAR Tat displ 0.25.
COC(=O)C1=C(C)NC2=C(C(=O)CC(C)(C)C2)C1c1ccc(OC)cc1OC (centres undefined) was read as CDC25B CDK2 inh -0.28 and TAR Tat displ 2.
`Nc1nc(NCc2ccc(Cl)cc2)nc(NCc2ccco2)c1[N+](=O)[O-]` gave TAR Tat displ 0.72.
`CCCN(CCC)C(=O)c1noc2c1COc1ccccc1-2` gave CDC25B CDK2 inh -1.8 and TAR Tat displ 1.1.
Screening CSc1n[nH]c(NC(=O)c2ccsc2)c1-c1ccc([N+](=O)[O-])cc1 returned CDC25B CDK2 inh -1.2.
N=C(N)SCC1COc2ccccc2O1 (centres undefined) was read as CDC25B CDK2 inh -1.9.
`CCCN1CCN(c2ncc3c(n2)CCN(Cc2cc(Br)cs2)C3)CC1` gave TAR Tat displ 0.35.
For COc1ccc(-c2coc3cc4oc(=O)c5c(c4cc23)CCCC5)cc1F the results were CDC25B CDK2 inh -2.2.
CCOC(=O)c1csc(Cn2nc(C)c(Br)c2C)n1 was read as CDC25B CDK2 inh -2.3.
